A1 apoptosis 2 = compounds inhibiting A1, read as caspase activation; caspase activation, % (no concentration beside the values); AID 2465; 24,000 tested, under 10 active; MEF A1-2A-BIM cells, caspase-Glo luminescence, 3 h; percent of clofoctol response, DMSO zero; in the data active = caspase activation above about 5.9%;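 note: wells of about 30 µL received 50 nL stock; the first replicate is given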
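System: mouse embryonic fibroblasts co-expressing A1 and BIM (A1-2A-BIM), primed for A1 dependence; amount: 2500 cells/well; doses: 50 nL pinned compound; schedule: cells settled overnight, compound exposure 3 h at 37 °C, 5% CO2; detection: Caspase-Glo 3/7 luminescence, 1 h at room temperature; read-out: Caspase-3/7 activation, seen as rise in luminescence signal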
Starred values were filed as active, the others as inactive. Not all compounds are listed; rates above refer to the full screens.

molecule | A1 apoptosis 2
C[C@@H]1CCCCO[C@H](CN(C)C(=O)Cc2ccccc2)[C@@H](C)CN([C@@H](C)CO)C(=O)c2cc(NS(=O)(=O)c3cn(C)cn3)ccc2O1 | -0.1
C[C@@H]1CCCCO[C@@H](CN(C)CC2CC2)[C@H](C)CN([C@@H](C)CO)C(=O)c2cc(NC(=O)c3ccccc3)ccc2O1 | -0.5
CC(C)NC(=O)Nc1ccc2c(c1)C(=O)N([C@@H](C)CO)C[C@@H](C)[C@H](CN(C)S(=O)(=O)c1cn(C)cn1)OCCCC[C@@H](C)O2 | -2.0
C[C@@H]1CCCCO[C@@H](CN(C)CC2CC2)[C@H](C)CN([C@H](C)CO)C(=O)c2cc(NS(=O)(=O)c3ccccc3)ccc2O1 | -1.0
C[C@@H]1CN([C@H](C)CO)C(=O)c2cc(NC(=O)NC3CCCCC3)ccc2O[C@@H](C)CCCCO[C@H]1CN(C)S(=O)(=O)c1ccccc1 | 0.2
COc1ccc(S(=O)(=O)N(C)C[C@@H]2Oc3ccc(NC(=O)Cc4cn(C)c5ccccc45)cc3CC(=O)N([C@@H](C)CO)C[C@@H]2C)cc1 | -0.1
C[C@@H]1CN([C@@H](C)CO)C(=O)c2cccc(NC(=O)C3CCOCC3)c2O[C@H]1CN(C)S(=O)(=O)c1ccc(Cl)cc1 | 0.7
C[C@H](CO)N1C[C@H](C)[C@@H](CN(C)C(=O)NC2CCCCC2)Oc2ccc(NC(=O)CCN3CCOCC3)cc2C1=O | 0.8
C[C@@H]1CN([C@H](C)CO)C(=O)c2cccc(NC(=O)Nc3ccc(C(F)(F)F)cc3)c2O[C@H]1CN(C)Cc1ccc(C(F)(F)F)cc1 | -0.4
C[C@H](CO)N1C[C@H](C)[C@@H](CN(C)C(=O)Nc2ccc3c(c2)OCO3)Oc2ccc(NC(=O)Cn3cnnn3)cc2CC1=O | -0.5
C[C@H](CO)N1C[C@H](C)[C@@H](CN(C)S(=O)(=O)c2cccs2)OCCCC[C@H](C)Oc2ccc(NC(=O)c3ccncc3)cc2C1=O | 0.3
C[C@@H]1CN([C@@H](C)CO)C(=O)Cc2cc(NC(=O)Cc3cn(C)c4ccccc34)ccc2O[C@H]1CN(C)S(=O)(=O)c1cn(C)cn1 | 0.8
C[C@@H]1CCCCO[C@@H](CN(C)CC2CC2)[C@H](C)CN([C@H](C)CO)C(=O)c2cc(NC(=O)Nc3ccc(C(F)(F)F)cc3)ccc2O1 | 0.7
C[C@@H]1CN([C@H](C)CO)C(=O)c2cc(NS(=O)(=O)c3cccs3)ccc2O[C@@H](C)CCCCO[C@@H]1CN(C)S(=O)(=O)c1ccc(F)cc1 | 1.4
C[C@H](CO)N1C[C@H](C)[C@H](CN(C)Cc2ccncc2)Oc2c(NC(=O)C3CCCCC3)cccc2C1=O | 0.3
C[C@H](CO)N1C[C@H](C)[C@H](CN(C)S(=O)(=O)c2cccs2)OCCCC[C@H](C)Oc2ccc(NS(=O)(=O)c3cccs3)cc2C1=O | -0.8
Cc1noc(C)c1NC(=O)N(C)C[C@@H]1Oc2ccc(NS(=O)(=O)c3ccc(F)cc3)cc2CC(=O)N([C@@H](C)CO)C[C@H]1C | -0.1
C[C@@H]1CCCCO[C@@H](CN(C)S(=O)(=O)c2cn(C)cn2)[C@@H](C)CN([C@H](C)CO)C(=O)c2cc(NC(=O)CCC(F)(F)F)ccc2O1 | 0.2
Cc1ccc(S(=O)(=O)N(C)C[C@@H]2Oc3ccc(NS(=O)(=O)c4ccccc4)cc3CC(=O)N([C@H](C)CO)C[C@H]2C)cc1 | 0.1
CNC[C@H]1Oc2c(NS(=O)(=O)c3cn(C)cn3)cccc2C(=O)N([C@H](C)CO)C[C@@H]1C | 0.7
C[C@@H]1CCCCO[C@H](CN(C)S(=O)(=O)c2ccc(F)cc2)[C@@H](C)CN([C@H](C)CO)C(=O)c2cc(NC(=O)Cc3ccccc3)ccc2O1 | 0.9
CCCCN(CCCC)c1ccc(/C=N/NC(=O)c2ccccc2O)cc1 | -1.0
C[C@@H]1CCCCO[C@H](CN(C)S(C)(=O)=O)[C@H](C)CN([C@H](C)CO)C(=O)c2cc(N(C)C)ccc2O1 | 0.7
Cc1noc(C)c1NC(=O)N(C)C[C@@H]1OCCCC[C@H](C)Oc2ccc(NS(=O)(=O)c3ccc(F)cc3)cc2C(=O)N([C@H](C)CO)C[C@@H]1C | 0.3
CN(C)c1ccc(/C=N/NC(=O)CCCCCC(=O)Nc2ccccc2O)cc1 | -0.1
C[C@@H]1CCCCO[C@H](CN(C)S(=O)(=O)c2cccs2)[C@@H](C)CN([C@@H](C)CO)C(=O)c2cc(NS(=O)(=O)c3ccccc3)ccc2O1 | -1.1
Cc1noc(C)c1S(=O)(=O)N(C)C[C@@H]1OCCCC[C@H](C)Oc2ccc(NC(=O)Nc3ccccc3)cc2C(=O)N([C@H](C)CO)C[C@H]1C | 2.4
CNC[C@H]1Oc2ccc(NC(=O)C3CC3)cc2CC(=O)N([C@H](C)CO)C[C@@H]1C | -1.5
Cc1ccc(S(=O)(=O)N(C)C[C@H]2Oc3ccc(NC(=O)Nc4c(C)noc4C)cc3C(=O)N([C@@H](C)CO)C[C@H]2C)cc1 | 1.9
Cc1noc(C)c1S(=O)(=O)Nc1cccc2c1O[C@@H](CN(C)Cc1ccc(C(=O)O)cc1)[C@@H](C)CN([C@@H](C)CO)C2=O | -0.6
Cc1ccc(S(=O)(=O)N(C)C[C@@H]2Oc3ccc(NC(=O)CCN4CCOCC4)cc3C(=O)N([C@H](C)CO)C[C@H]2C)cc1 | -0.6
C[C@@H]1CN([C@@H](C)CO)C(=O)c2cc(NC(=O)c3ccncc3)ccc2O[C@H]1CN(C)Cc1ccc2c(c1)OCO2 | -0.3
C[C@@H]1CN([C@@H](C)CO)C(=O)c2cccc(NC(=O)Nc3ccc4c(c3)OCO4)c2O[C@H]1CN(C)S(=O)(=O)c1ccc(F)cc1 | 0.7
C[C@H]1CCCCO[C@H](CN(C)C)[C@@H](C)CN([C@@H](C)CO)C(=O)c2cc(NC(=O)CCCN(C)C)ccc2O1 | 1.4
C[C@@H]1CN([C@@H](C)CO)C(=O)c2cc(NC(=O)Cc3ccccc3)ccc2O[C@@H](C)CCCCO[C@H]1CN(C)C(=O)CCC(F)(F)F | 1.6
C[C@H](CO)N1C[C@H](C)[C@@H](CN(C)Cc2ccc(C(F)(F)F)cc2)Oc2ccc(NS(=O)(=O)c3ccccc3)cc2CC1=O | -1.3
C[C@H]1CN([C@@H](C)CO)C(=O)Cc2cc(NC(=O)Nc3ccc(C(F)(F)F)cc3)ccc2O[C@@H]1CN(C)Cc1ccncc1 | -0.2
C[C@H]1CCCCO[C@H](CN(C)C(=O)Nc2ccc(F)cc2)[C@@H](C)CN([C@@H](C)CO)C(=O)c2cc(NC(=O)c3ccccc3)ccc2O1 | 0.4
Cc1nc2cc(Br)ccc2c(=O)n1Cc1cccc(O)c1 | -0.8
O=C(C1=C[C@@H](c2ccccc2)C[C@@H](OCCCCO)O1)N1CCN(Cc2ccccc2)CC1 | 1.4
C[C@H]1CN([C@@H](C)CO)C(=O)c2cccc(NC(=O)c3cnccn3)c2O[C@H]1CN(C)Cc1ccc2c(c1)OCO2 | 0.9
C[C@@H]1CN([C@@H](C)CO)C(=O)Cc2cc(N(C)C)ccc2O[C@@H]1CN(C)Cc1ccc(Oc2ccccc2)cc1 | 0.6
C[C@H]1CN([C@@H](C)CO)C(=O)c2cccc(NC(=O)C3CCOCC3)c2O[C@H]1CN(C)C(=O)Nc1cccc2ccccc12 | 1.1
C[C@@H]1CN([C@@H](C)CO)C(=O)c2cc(NS(=O)(=O)c3ccccc3)ccc2O[C@@H](C)CCCCO[C@@H]1CN(C)S(=O)(=O)c1cccs1 | -0.2
C[C@@H]1CN([C@H](C)CO)C(=O)c2cccc(NC(=O)C3CCOCC3)c2O[C@H]1CN(C)Cc1ccccc1 | -0.6
C[C@H]1CCCCO[C@@H](CN(C)C(=O)Nc2ccccc2)[C@@H](C)CN([C@@H](C)CO)C(=O)c2cc(NC(=O)Nc3ccc4c(c3)OCO4)ccc2O1 | 2.6
C[C@H]1CN([C@@H](C)CO)C(=O)Cc2cc(NS(=O)(=O)c3ccc(F)cc3)ccc2O[C@H]1CN(C)Cc1ccccc1 | 1.3
C[C@H]1CN([C@@H](C)CO)C(=O)Cc2cc(NS(=O)(=O)c3cn(C)cn3)ccc2O[C@H]1CN(C)C(=O)Nc1ccc(F)cc1 | -1.0
COc1ccc(NC(=O)Nc2ccc3c(c2)C(=O)N([C@H](C)CO)C[C@H](C)[C@@H](CN(C)S(=O)(=O)c2ccc(F)cc2)OCCCC[C@H](C)O3)cc1 | 0.4
C[C@H](CO)N1C[C@H](C)[C@H](CN(C)C(=O)Nc2ccc(C(F)(F)F)cc2)Oc2c(NC(=O)Nc3cccc4ccccc34)cccc2C1=O | 0.5

New compounds follow:
molecule | A1 apoptosis 2
C[C@@H]1CN([C@H](C)CO)C(=O)c2cc(N(C)C)ccc2O[C@@H](C)CCCCO[C@@H]1CN(C)C(=O)c1ccncc1 | 0.1
C[C@H]1CN([C@@H](C)CO)C(=O)Cc2cc(NS(=O)(=O)c3ccccc3)ccc2O[C@@H]1CN(C)C(=O)Nc1ccc(C(F)(F)F)cc1 | 0.0
CC(C)NC(=O)Nc1ccc2c(c1)C(=O)N([C@H](C)CO)C[C@@H](C)[C@@H](CN(C)S(=O)(=O)c1cccs1)OCCCC[C@H](C)O2 | -0.9
Cc1ccc(S(=O)(=O)N(C)C[C@@H]2OCCCC[C@@H](C)Oc3ccc(NS(=O)(=O)c4cccs4)cc3C(=O)N([C@H](C)CO)C[C@H]2C)cc1 | 0.4
C[C@@H]1CN([C@@H](C)CO)C(=O)Cc2cc(NC(=O)Cc3ccccc3)ccc2O[C@@H]1CN(C)C(=O)Nc1ccc2c(c1)OCO2 | 1.0
C[C@@H]1CN([C@@H](C)CO)C(=O)c2cccc(NS(=O)(=O)c3cn(C)cn3)c2O[C@H]1CN(C)Cc1ccc(C(=O)O)cc1 | -0.3
COc1ccc(S(=O)(=O)N(C)C[C@@H]2Oc3ccc(NS(=O)(=O)c4ccccc4)cc3CC(=O)N([C@@H](C)CO)C[C@H]2C)cc1 | 1.2
Cc1noc(C)c1S(=O)(=O)Nc1ccc2c(c1)CC(=O)N([C@H](C)CO)C[C@@H](C)[C@H](CN(C)Cc1ccc(-c3ccccc3)cc1)O2 | -1.5
C[C@@H]1CN([C@@H](C)CO)C(=O)c2cc(NC(=O)CCCCCC(=O)Nc3ccccc3N)ccc2O[C@@H]1CN(C)C(=O)Nc1ccc(F)cc1 | 1.1
COc1ccc(S(=O)(=O)Nc2ccc3c(c2)C(=O)N([C@H](C)CO)C[C@@H](C)[C@@H](CN(C)S(=O)(=O)c2cccs2)OCCCC[C@H](C)O3)cc1 | 0.9
COCCCNC(=O)[C@@]1(Cc2ccccc2I)c2ccccc2C(=O)N(Cc2ccccc2OC)[C@H]1c1ccc(CO)cc1 | 0.3
COc1ccc(CN(C)C[C@@H]2Oc3c(NS(C)(=O)=O)cccc3C(=O)N([C@@H](C)CO)C[C@H]2C)cc1 | 0.5
O=C(CCCCCCC(=O)Nc1ccccc1O)N/N=C/c1cc(Br)cs1 | 0.8
C[C@H](CO)N1C[C@H](C)[C@@H](CN(C)Cc2ccc3c(c2)OCO3)Oc2ccc(NC(=O)C3CCCCC3)cc2C1=O | -0.4
C[C@@H]1CN([C@@H](C)CO)C(=O)Cc2cc(NS(=O)(=O)c3ccc(F)cc3)ccc2O[C@H]1CN(C)Cc1ccc(C(=O)Nc2ccccc2N)cc1 | 0.5
O=C(N/N=C/c1cccc(B(O)O)c1)c1ccccc1O | -3.3
COc1ccc(/C=C2\SC(=S)N(CCCC(=O)NC34CC5CC(CC(O)(C5)C3)C4)C2=O)cc1 | -5.6
C[C@H](CO)N1C[C@H](C)[C@H](CN(C)S(=O)(=O)c2ccc(-n3cccn3)cc2)OCc2cn(nn2)CCCC1=O | 1.3
CNC[C@@H]1OCCCC[C@@H](C)Oc2ccc(NS(=O)(=O)c3cccs3)cc2C(=O)N([C@@H](C)CO)C[C@H]1C | -1.2
C[C@@H]1CCCCO[C@@H](CN(C)Cc2ccncc2)[C@H](C)CN([C@@H](C)CO)C(=O)c2cc(NS(=O)(=O)c3ccc(Cl)cc3)ccc2O1 | -0.8
C[C@H]1CN([C@@H](C)CO)C(=O)c2cc(NC(=O)Nc3ccc(C(F)(F)F)cc3)ccc2O[C@H]1CN(C)Cc1ccc(C(F)(F)F)cc1 | -0.4

A draw from above in order of count of non-hydrogen atoms, low to high:
molecule | A1 apoptosis 2
COc1ccc(/C=C2\SC(=S)N(CCCC(=O)NC34CC5CC(CC(O)(C5)C3)C4)C2=O)cc1 | -5.6
C[C@@H]1CN([C@@H](C)CO)C(=O)Cc2cc(NC(=O)Cc3ccccc3)ccc2O[C@@H]1CN(C)C(=O)Nc1ccc2c(c1)OCO2 | 1.0
C[C@@H]1CN([C@@H](C)CO)C(=O)c2cc(NC(=O)CCCCCC(=O)Nc3ccccc3N)ccc2O[C@@H]1CN(C)C(=O)Nc1ccc(F)cc1 | 1.1

An excerpt of these results, field by field.
COc1ccc(S(=O)(=O)Nc2ccc3c(c2)C(=O)N([C@H](C)CO)C[C@@H](C)[C@@H](CN(C)S(=O)(=O)c2cccs2)OCCCC[C@H](C)O3)cc1
  A1 apoptosis 2: 0.9

COc1ccc(S(=O)(=O)N(C)C[C@@H]2Oc3ccc(NS(=O)(=O)c4ccccc4)cc3CC(=O)N([C@@H](C)CO)C[C@H]2C)cc1
  A1 apoptosis 2: 1.2

COc1ccc(CN(C)C[C@@H]2Oc3c(NS(C)(=O)=O)cccc3C(=O)N([C@@H](C)CO)C[C@H]2C)cc1
  A1 apoptosis 2: 0.5
